MT1-MMP promoter: MT1-MMP gene expression reporter suppression – cell-based, luciferase reporter, luminescence (AID 618); MT1-MMP promoter luciferase reporter cells, luminescence; calls from a first round at 10 µM; hits with a dose series show EC50 in µM; 0.62% of 87,000 active;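 active means over half of the reporter light lost at 10 µM or EC50 under 50 µM; inactive means the rest and hits that failed the dose series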;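 further: actives suppress MT1-MMP promoter-driven transcription so potencies describe inhibitors; HT1080 fibrosarcoma cells; overnight exposure; toxic or luciferase-blocking compounds were not removed from the actives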
Hsc70: Hsc70 inhibitors, probe displacement, primary screen, biochemical, fluorescence polarization (AID 568); 83,000 tested, under 10 active; displacement, % at 20 µM, or IC50 in µM where a hit was titrated; Hsc70 fluorescence polarization, probe displacement; higher % means a stronger effect; strong numbers were not always called active;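 active means displacement above 50% without optical interference and an IC50 on retest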;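 further: ATPase domain with a fluorescein-tagged ATP probe; 0% = vehicle and 100% = excess ADP; read after one hour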
WNV protease inh: WNV NS2B-NS3 proteinase inhibition. P06935. WNV NS2B-NS3 protease, fluorogenic substrate Ex360/Em465; hits give low values. z-score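 (tested at a level between 10 and 100 µM)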. 0.18% of 65,000 active. AID 577;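 active means z-score at -3 or under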;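 further: score is relative to mean and spread of the compound wells of a plate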
Target sequence (P06935 1371-1501 limits assumed): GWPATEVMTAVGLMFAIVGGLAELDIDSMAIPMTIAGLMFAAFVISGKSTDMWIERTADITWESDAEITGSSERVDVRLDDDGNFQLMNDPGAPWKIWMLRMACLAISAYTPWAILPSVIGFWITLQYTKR
Target sequence (P06935 1502-1679 limits assumed): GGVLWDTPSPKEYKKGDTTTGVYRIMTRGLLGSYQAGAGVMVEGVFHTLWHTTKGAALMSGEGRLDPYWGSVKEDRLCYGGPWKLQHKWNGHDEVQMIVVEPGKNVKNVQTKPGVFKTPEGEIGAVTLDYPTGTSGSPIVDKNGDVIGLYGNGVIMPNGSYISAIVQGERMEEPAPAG
* hit, by the source's call; i = inactive; . = no result given.

SMILES	MT1-MMP promoter	Hsc70	WNV protease inh
CCOC(=O)C1=C(C)N=C2SC(C)C(=O)N2C1c1ccc(C(=O)OC)cc1 (stereo unspecified)	i	-3.6%	-0.66
CCOC(=O)c1cccc(NC(=O)CSc2nnc(-c3ccoc3C)n2CCOC)c1	i	2.4%	0.33
COc1cccc(N2CC(C(=O)Nc3ccc(C(=O)OC(C)C)cc3)CC2=O)c1 (stereo unspecified)	i	0.2%	0.37
COc1ccc(NC(=O)N(CCC(C)C)C(C)c2ccccn2)c(OC)c1 (stereo unspecified)	i	0.5%	-0.24
CN1CC(=O)NC1=NC(=O)c1cc(F)c(F)cc1Cl	i	-1.7%	-0.24
Cc1ccc(N(C(C)C(=O)Nc2ccc(S(=O)(=O)N3CCOCC3)cc2)S(C)(=O)=O)cc1 (stereo unspecified)	i	1.1%	-1.21
COc1ccc(Cl)cc1NC(=O)c1ocnc1C	i	-4.8%	0.13
O=C(O)CC(CNS(=O)(=O)c1ccccc1)c1ccccc1 (stereo unspecified)	i	2.0%	-0.34
O=C(c1cc(C2CC2)on1)N1CCOCC1	i	-4.1%	-0.78
O=c1c2c3c(sc2n(CCN2CCCC2)c(=O)n1Cc1ccco1)CCCCC3	i	-6.1%	-0.32

An excerpt from above, showing only WNV protease inh and Hsc70:
| canonical_smiles | WNV protease inh | Hsc70 |
| --- | --- | --- |
| CCOC(=O)c1cccc(NC(=O)CSc2nnc(-c3ccoc3C)n2CCOC)c1 | 0.33 | 2.4% |
| COc1cccc(N2CC(C(=O)Nc3ccc(C(=O)OC(C)C)cc3)CC2=O)c1 (stereo unspecified) | 0.37 | 0.2% |

Next section
SMILES	MT1-MMP promoter	Hsc70	WNV protease inh
CN(C)CC(O)COc1cc2ccccc2cc1C(=O)N1CCCCC1 (stereo unspecified)	i	-3.5%	-1.25
O=C(CSc1nncs1)N1c2ccccc2Sc2ccccc21	i	0.3%	-0.42
CCN(CC)CCOc1cccc(C(C)C)c1	i	-2.8%	-1.14
CCN(CC)C(=O)CSc1nc(O)cc(=O)n1CC	i	-2.1%	2.68
CCOC(=O)N1CCN(CC(O)COC2CC(C)CCC2C(C)C)CC1 (stereo unspecified)	i	3.5%	.
O=C(c1ccco1)N1CCN(C(=O)c2ccc(COc3ccc(F)cc3)o2)CC1	i	-11.5%	0.09
c1coc(Cn2c(SCc3nc4ccccc4[nH]3)nnc2-c2cnccn2)c1	i	1.8%	-0.34
COc1ccc(-c2nnc3sc(-c4ccccn4)nn23)cc1	i	-6.8%	-0.91
CCN1CCN(C(=O)c2c(-c3c(F)cccc3Cl)noc2C)CC1	i	-2.2%	.
CCC(=O)Nc1ccccc1C(=O)N1CCN(Cc2ccccc2)CC1	i	-0.3%	-0.59

Reprinted from the part before: five entries, then new ones.
SMILES	MT1-MMP promoter	Hsc70	WNV protease inh
O=C(c1ccco1)N1CCN(C(=O)c2ccc(COc3ccc(F)cc3)o2)CC1	i	-11.5%	0.09
c1coc(Cn2c(SCc3nc4ccccc4[nH]3)nnc2-c2cnccn2)c1	i	1.8%	-0.34
COc1ccc(-c2nnc3sc(-c4ccccn4)nn23)cc1	i	-6.8%	-0.91
CCN1CCN(C(=O)c2c(-c3c(F)cccc3Cl)noc2C)CC1	i	-2.2%	.
CCC(=O)Nc1ccccc1C(=O)N1CCN(Cc2ccccc2)CC1	i	-0.3%	-0.59
Cn1c(=O)c2c(nc(CN3CCN(c4ccccc4F)CC3)n2CCCc2ccccc2)n(C)c1=O	i	4.1%	0.02
COC(=O)c1cc2sc(Cl)cc2n1CC(=O)Nc1ccc(OC)c(OC)c1OC	i	1.2%	-1.22
CC1CC(C)(C)NCCNC(C)CC(C)(C)NCCN1 (stereo unspecified)	i	-2.8%	0.23
CCOC(=O)c1ccc(N2C(=O)CC(C3CCCO3)C2=O)cc1 (stereo unspecified)	i	3.8%	1.66
Nc1c(S(=O)(=O)c2cccc(Cl)c2)c2nc3ccccc3nc2n1CCN1CCOCC1	i	-0.8%	-0.54
Cc1ccc(N(CC(=O)NCC2CCCO2)S(C)(=O)=O)cc1Cl (stereo unspecified)	i	-2.0%	0.01
COc1cccc(Nc2ncccc2C(=O)O)c1	i	-3.1%	1.1
CCCNC(=O)c1ccc(OC)cc1OC	i	-1.2%	.
O=C(O)CNc1nc(-c2ccccc2)nc2ccccc12	i	-0.2%	.
Cn1cc(C(=O)NCN2CCCCC2)c2ccccc21	i	-2.6%	-6.57*
COc1ccc(OC)c(NC(=O)CSc2ncccn2)c1	i	5.5%	.
CCN(CC)CCN1C(=O)C(=O)/C(=C(/O)c2ccncc2)C1c1ccccc1 (stereo unspecified)	i	-2.2%	-0.81
Cc1ccc2oc3c(c(=O)c2c1)C(c1cccs1)N(CCCN(C)C)C3=O (stereo unspecified)	i	1.6%	-0.64
O=C(Nc1sc2c(c1C(=O)NCC1CCCO1)CCCC2)c1cccs1 (stereo unspecified)	i	4.8%	-0.72
CC1SC(c2ccccc2Cl)NC1=O (stereo unspecified)	i	-1.6%	.
COCCOC(=O)C1=C(C)Nc2ncnn2C1c1ccc(F)cc1 (stereo unspecified)	i	-6.0%	-0.85
CCOC(=O)C1=C(CSCc2ccccc2)NC(=O)NC1c1cc(C)ccc1C (stereo unspecified)	i	-7.2%	.
NC(=O)CSc1nnc(-c2ccc(S(=O)(=O)N3CCOCC3)cc2)n1CC1CCCO1 (stereo unspecified)	i	-4.2%	0.02
CCN=C1SC(CC(=O)Nc2sc3c(c2C#N)CCCC3)C(=O)N1CC (stereo unspecified)	i	1.9%	-0.09
CCCOP(=O)(c1ccc(N(C)C)cc1)C(O)c1cccnc1 (stereo unspecified)	i	3.6%	.
COc1ccc(NC(=O)Nc2ccc(N(C)C)cc2)cc1	i	-4.1%	0.52
O=C1CN(C(=O)c2ccc(Br)o2)C(c2ccccc2)c2cc(F)ccc2N1 (stereo unspecified)	i	-2.0%	-0.92
O=C(O)C1CCC(=O)N1C1CCCC1 (stereo unspecified)	i	-5.0%	0.46
CC(C)CC(=O)N1CCN(S(=O)(=O)c2ccccc2)CC1	i	-0.6%	.
Cc1nnc(NC(=O)CCC(=O)N2CCC(C)CC2)s1	i	3.2%	-0.51
CSc1nc(N)c(C#N)c(-c2ccccc2Cl)c1C#N	i	1.0%	-0.12
Cn1c(CCc2ccccc2)nnc1SCC(=O)N1CCCC1	i	-1.9%	-1.15
CCOC(=O)Cc1c(C)nc2c(-c3ccc(Cl)cc3)c[nH]n2c1=O	i	-0.6%	-1.07
CCN1CCCC1CNC(=O)Cn1cnc2sc(C)c(S(=O)(=O)N3CCC(C)CC3)c2c1=O (stereo unspecified)	i	-0.1%	.
Cn1c(=O)cc(SCC(=O)NCC2COc3ccccc3O2)c2ccccc21 (stereo unspecified)	i	4.7%	0.51
CC(O)c1cccc(NC(=O)CCC(=O)O)c1 (stereo unspecified)	i	2.0%	1.34
CC(=O)NCC(=O)OC(C)C(=O)Nc1ccc(C(C)=O)cc1 (stereo unspecified)	i	-0.6%	1.4
O=C1OCc2cc(NS(=O)(=O)c3cccs3)ccc21	i	9.1%	-0.97
O=C(Cn1cnc2c(oc3ccccc32)c1=O)c1ccccc1	i	0.0%	1.07
CCOC(=O)c1cc2sccc2n1CC(=O)O	i	2.8%	.
COc1ccc(CN(CC(=O)NCc2ccco2)C(=O)CCC(=O)Nc2nccs2)cc1	i	3.7%	-1.41
Cc1noc(C)c1CSc1nc2ccccc2c(=O)n1-c1ccc(F)cc1F	i	-8.6%	-0.94
CCc1onc(C)c1C(=O)Nc1cc(C)ccc1OC	i	1.5%	.
CCOc1ccc(OCC)c2sc(C)nc12	i	3.0%	-0.18
COc1ccccc1-c1cc(C(F)(F)F)nc(S(=O)(=O)CCCC(=O)NC(C)C)n1	i	3.8%	-0.71
Cc1ccc(Nc2cnn(C34CC5CC(CC(CC(=O)O)(C5)C3)C4)c(=O)c2Cl)cc1C	i	-5.2%	.
CCCNC(=O)CN(c1ccc(F)cc1)S(=O)(=O)c1ccc2c(c1)OCCO2	i	7.6%	.
COc1ccccc1NC(=O)CNC(=O)c1ccccc1	i	-0.9%	-1.39
CCSc1nnc(-c2ccc(OC)cc2)o1	i	-8.0%	0.68
CCn1c(COc2cccc(C)c2)nnc1SCC(=O)Nc1cccc(C(=O)OC)c1	i	2.9%	-0.55
CSc1nc2c(c(=O)n1-c1ccc(C)cc1)SCC2	i	-2.9%	0.27
Cc1cccc2cc(CN(Cc3nnnn3Cc3ccccc3)C3CCCC3)c(=O)[nH]c12	i	-2.2%	0.38
C=CCSc1nc2c(cc1C#N)CCC2	i	0.5%	-0.88
Nc1c2c(nc3ccccc13)N(c1ccccc1)CC2	i	-6.6%	3.27
CC(=O)Oc1ccc(/C=c2\sc3ncnn3c2=O)cc1	i	-6.4%	0.34

(further entries)
SMILES	MT1-MMP promoter	Hsc70	WNV protease inh
Cn1c(SCC(=O)Nc2nc3ccccc3s2)nnc1-c1ccccc1	i	3.6%	.
CCCn1c(N)c(N2CCCCC2)c(=O)n(CC(=O)Nc2ccccc2)c1=O	i	-0.2%	.
c1ccc(Nc2nc(N3CCOCC3)nc(N3CCOCC3)n2)cc1	i	4.1%	0.75
COC(=O)c1sc(=S)sc1C(=O)OC	i	1.9%	-1.21
O=C1Nc2ccccc2C12OCCS2 (stereo unspecified)	i	-2.6%	-0.0013
CSCCC(CO)NC(=O)OCc1ccccc1 (stereo unspecified)	i	-4.7%	0.27
COc1ccc(N2CCN(C(=O)C(OC(C)=O)c3ccccc3)CC2)cc1 (stereo unspecified)	i	2.9%	0.36
c1ccc2c(c1)oc1c(N3CCOCC3)ncnc12	i	-4.5%	-0.77
CC(C)[C@H](NC(=O)NCCc1ccc(Cl)cc1)C(=O)O	i	-3.6%	-0.69
CCOc1ccc(CSC(=N)N)cc1[N+](=O)[O-]	i	-2.2%	.
CCN(CC)C(=O)CN(C#N)c1nc(NC(C)C)nc(NC(C)C)n1	i	-4.8%	1.45
CC(Cc1cccs1)NC(=O)Nc1cccc(Cl)c1 (stereo unspecified)	i	-5.1%	.
CCOc1ccc2nc(N3CCCC(C(=O)NCCCN4CCOCC4)C3)sc2c1 (stereo unspecified)	i	-0.3%	0.18
COc1cc(C)c(CNc2cc(C)cc(C)c2)cc1C	i	-0.4%	.
CC(SCC(=O)Nc1ccc(S(=O)(=O)N2CCCCC2)cc1)C(=O)O (stereo unspecified)	i	-1.7%	0.66
N#CCCn1cc(C(CC(=O)c2ccc(Br)cc2)C(=O)O)c2ccccc21 (stereo unspecified)	i	-0.3%	-1.4
O=c1c(-c2ccco2)[n+]([O-])c2ccccc2n1OCc1ccccc1	i	-1.1%	.
CCCCNC(=O)C1CCCN(S(=O)(=O)c2ccc(-n3cnnn3)cc2)C1 (stereo unspecified)	i	0.0%	1.68
Cc1nn(Cc2ccccc2)c(=O)n1N(C)c1ncc(C(F)(F)F)cc1Cl	i	0.5%	.
CCCCOC(=O)Nc1cccc(C(=O)OCC)c1	i	-4.0%	.

Gathered by group, those above with bromine.
SMILES	MT1-MMP promoter	Hsc70	WNV protease inh
O=C1CN(C(=O)c2ccc(Br)o2)C(c2ccccc2)c2cc(F)ccc2N1 (stereo unspecified)	i	-2.0%	-0.92
N#CCCn1cc(C(CC(=O)c2ccc(Br)cc2)C(=O)O)c2ccccc21 (stereo unspecified)	i	-0.3%	-1.4

Going on with the list.
SMILES	MT1-MMP promoter	Hsc70	WNV protease inh
CN(c1ccc(C(=O)O)cc1)S(=O)(=O)c1ccc(Cl)cc1	i	-3.3%	0.71
CCOc1cc(-c2cc(-c3ccc(C)cc3)nc(N)c2C#N)ccc1O	i	4.0%	.
COc1ccc(OC)c(NC(=O)C2CCCCC2C(=O)O)c1 (stereo unspecified)	i	5.6%	0.04
Cc1ccc(NS(=O)(=O)c2ccc(OCC(=O)NCc3ccco3)cc2)cc1	i	3.2%	0.03
CC(NC(=O)c1cc2c(s1)CCCC2)C(C)(C)C (stereo unspecified)	i	4.2%	.
Cc1cc(=O)oc2c1c(C)nn2-c1nn[nH]n1	i	1.8%	0.83
Cc1cc(C)nc(Nc2ncc(O)n2-c2ccccc2)n1	i	0.2%	.
C=CCNc1nc2c(c(=O)[nH]c(=O)n2C)n1Cc1cccc(C)c1	i	-0.1%	-1.06
Cc1ccc(S(=O)(=O)CCC(=O)OCC(=O)N2CC(=O)Nc3ccccc32)cc1	i	4.0%	0.67
CCOc1cccc(NC(=O)C2CC(=O)N(C)C2)c1 (stereo unspecified)	i	-3.2%	0.56
O=C(NCc1ccc2c(c1)OCO2)c1ccccn1	i	-3.7%	0.52
CCOc1ccc(OCC)c(NC(=O)C2CCCN(c3nc(C)cc(C)n3)C2)c1 (stereo unspecified)	i	2.8%	-0.89
CCOc1ccc(Nc2nc(Cc3nnc(SCC(=O)c4ccc(C)cc4)o3)cs2)cc1	i	2.3%	.
COc1cccc(-c2nnc(NC(=O)c3cccc(F)c3)o2)c1	i	4.3%	-0.29
Cc1cc(C)nc(Nc2n[nH]c(COc3ccc4ccccc4c3)n2)n1	i	7.0%	.
CCOCCCNC(=O)CSc1ccccc1	i	-1.7%	-1.23

Part of the list above in order of number of heavy atoms, high to low.
SMILES	MT1-MMP promoter	Hsc70	WNV protease inh
COc1ccc(CN(CC(=O)NCc2ccco2)C(=O)CCC(=O)Nc2nccs2)cc1	i	3.7%	-1.41
CCOc1ccc(CSC(=N)N)cc1[N+](=O)[O-]	i	-2.2%	.
O=C(O)C1CCC(=O)N1C1CCCC1 (stereo unspecified)	i	-5.0%	0.46

Compound activity (PubChem BioAssay)
